Screening results as filed in PubChem BioAssay.
A647 autofl = qHTS Assay for Spectroscopic Profiling in A647 Spectral Region. Compound fluorescence, A647 channel (570/671 nm), Tris buffer. max dye-equivalent concentration, M. 59,000 tested, under 10 active. AID 592, 2007; active means above 1 µM dye equivalent; inconclusive means 0.1 to 1 µM; inactive means 0.1 µM or less;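 also: values scaled relative to a standard on each plate; highest value over a series up to 38 µM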
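Fluorescence read (570 nm ex, 671 nm em) after 15 min RT incubation of compounds in 100 mM Tris buffer, pH 8.0; values expressed as dye-equivalent concentration against a six-point A647 standard series on each plate.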
TSHR agonist = qHTS Assay for Agonists of the Thyroid Stimulating Hormone Receptor; HEK293-CNG-TSHR cells (CNG channel as cAMP sensor), membrane potential dye, cAMP; Potency, µM (doses to about 57.1 µM), without a hit: at the highest dose activation, usual class: activators; actives 0.48% (n = 73,000); active = well fitted activation curve of enough size with the parental cells flat; inconclusive = any curve in the parental cells; inactive = parental cells flat and receptor cells flat or falling; also: potency is read from the fitted curve at half-maximal effect; % of control where 0% means no effect; weak receptor curves with flat parental cells got no call and are not listed
Target sequence (P16473 whole entry, looked up): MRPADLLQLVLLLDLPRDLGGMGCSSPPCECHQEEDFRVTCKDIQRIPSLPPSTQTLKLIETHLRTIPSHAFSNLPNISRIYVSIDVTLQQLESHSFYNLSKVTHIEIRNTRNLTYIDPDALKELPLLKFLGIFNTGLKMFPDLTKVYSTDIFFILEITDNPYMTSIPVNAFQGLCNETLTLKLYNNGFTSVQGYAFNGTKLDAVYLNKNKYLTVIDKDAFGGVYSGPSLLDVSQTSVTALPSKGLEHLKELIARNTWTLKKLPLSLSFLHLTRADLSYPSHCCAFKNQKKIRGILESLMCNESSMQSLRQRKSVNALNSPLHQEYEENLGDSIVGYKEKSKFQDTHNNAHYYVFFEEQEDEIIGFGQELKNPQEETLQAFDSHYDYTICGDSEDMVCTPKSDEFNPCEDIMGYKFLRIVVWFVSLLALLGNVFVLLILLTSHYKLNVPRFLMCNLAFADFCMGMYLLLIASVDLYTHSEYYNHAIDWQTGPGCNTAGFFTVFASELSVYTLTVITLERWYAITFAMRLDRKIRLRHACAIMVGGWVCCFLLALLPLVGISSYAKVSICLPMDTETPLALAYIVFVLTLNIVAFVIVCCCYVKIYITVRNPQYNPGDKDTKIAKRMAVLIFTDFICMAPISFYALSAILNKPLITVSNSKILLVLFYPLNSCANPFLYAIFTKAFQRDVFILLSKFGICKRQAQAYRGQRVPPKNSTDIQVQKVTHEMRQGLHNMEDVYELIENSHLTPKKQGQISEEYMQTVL
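HEK 293 cells stably expressing TSHR and a modified CNG channel, with CNG-only parental cells as counterscreen, were preloaded 60 min at room temperature with membrane potential dye containing 100 uM RO 20-1724. Compound exposure was 30 min, and depolarization was read as fluorescence at 590 nm.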
Resorufin autofl = qHTS Assay for Spectroscopic Profiling in Resorufin Spectral Region; actives 0.04% (n = 59,000); max dye-equivalent concentration, M; Compound fluorescence, resorufin region 547/598 nm, buffer; stronger effect = higher value; active = above 10 nM dye equivalent; inconclusive = 1 to 10 nM; inactive = 1 nM or less; a few of its hits are not listed in these tables; also: highest value over a series up to 38 µM
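Tris 100 mM pH 8.0; compound added, 15 min RT; CCD imager read, ex 547 nm/em 598 nm; signal normalized to resorufin standard curve (six concentrations per plate) as dye-equivalent concentration.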
A488 autofl = qHTS Assay for Spectroscopic Profiling in A488 Spectral Region; compound autofluorescence, A488 spectral region, dye equivalency; stronger effect = higher value; max dye equivalency, M; actives 0.1% (n = 59,000); AID 591, 2007; active = above 10 nM dye equivalent; inconclusive = 1 to 10 nM; inactive = 1 nM or less; about half of its hits are not listed in these tables;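 also: highest value over a series up to 38 µM; compound alone in buffer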
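Autofluorescence read at ex 480/em 540 nm after 15 min RT in 100 mM Tris pH 8.0; compound signal normalized to A488 standard series on each plate, reported as dye-equivalent concentration at each test concentration.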
AID923 = qHTS Assay for Allosteric/Competitive Inhibitors of Caspase-1: Spectroscopic Profiling in AFC Spectral Region; compound fluorescence, AFC spectral region (405/520 nm); almost no hit is shown here; Potency, µM (doses to about 57.5 µM), inactives show at the highest dose fluorescence increase, hits mostly activators; actives 1.1% (n = 75,000); active = well fitted activation curve with a large enough effect; inconclusive = small, poorly fitted or top-dose-only effect;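 also: potency is read from the fitted curve at half-maximal effect; 0% is about no effect; scaled to a free AFC standard on each plate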
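Baseline compound fluorescence (AFC region, 405 nm ex/520 nm em) taken from the intercept of kinetic reads with 50 nM caspase-1 and 5 uM Ac-WEHD-AFC; normalized to an on-plate AFC standard curve; compounds titrated up to 57 uM.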
Numbers without * were called inactive; i = inactive; ? = inconclusive; · = no result given; & = joins results of further samples; [ ] = remark or other dose.

Structure | A647 autofl | TSHR agonist | Resorufin autofl | A488 autofl | AID923
COc1cc2c(cc1OC)C(/C(C#N)=N\O)=NC(C)(C)C2 | 3.2e-09 | 10% | i | i | -0.1%
Cc1ccc(NC(=O)CS(=O)CC(=O)Nc2cccc(C)c2C)cc1F (configuration not stated) | 1e-09 | -3% | i | i | -2.1%
c1cc2nnnn2nc1N1CCCCC1 | 4.7e-09 | -1% | i | i | -0.5%
CNC(=O)Nc1cccc(NC(=O)NC)n1 | 2.7e-08 | · | i | i | ·
COC(=O)C1CCN(C(=O)C(C)Oc2ccc(Cl)cc2Cl)CC1 (configuration not stated) | 1e-09 | 29% | i | i | -1.9%
CCC(Sc1nnc(C)s1)C(=O)Nc1nccs1 (configuration not stated) | 3.1e-08 | ? | i | i | 0.1%
Cc1ccnc(SCC(=O)N2CCN(c3cccc(Cl)c3)CC2)n1 | 1e-09 | 26% | i | i | -0.2%
Cc1cc(-c2c(C)n([O-])c(C)c(C)[n+]2=O)ccc1F | · | -4% | · | · | 1.2%
O=C(Nc1nc(-c2ccccn2)cs1)C1CC1 | · | 7% | · | · | 0.3%
Cc1cc(=O)oc(C)c1C(=O)OCC(=O)c1ccccc1 | · | 12%[11.4 µM] | · | · | 0.7%

Structure | A647 autofl | TSHR agonist | Resorufin autofl | A488 autofl | AID923
N=C(N)SCc1cccc(-c2nc3ccccc3c(=O)o2)c1 | 2.2e-09 | 5%[11.4 µM] | i | i | 5.2%[11.5 µM]
COC(CCN(C)C)(c1ccccc1)c1ccccc1 | · | 14%[11.4 µM] | · | · | -0.9%
Cc1ccc2[nH]c3c(NCc4ccco4)ncnc3c2c1 | 6.8e-09 | ? | i | i | 1.0%
OCCN1CCN(C(=S)c2ccc(Cl)c(Cl)c2)CC1 | 5.4e-09 | ? | i | i | -0.9%
COc1ccc(OC)c(NC(=O)CCN2CCN(Cc3ccccc3)CC2)c1 | 2.1e-09 | 5% | i | i | -0.8%
O=C(O)C(CCCCN1C(=O)c2ccccc2C1=O)N1C(=O)c2ccccc2C1=O (configuration not stated) | · | 10% | · | · | 0.6%
COc1ccc(C2CCCN2C(=O)c2cccs2)cc1 (configuration not stated) | 3.1e-08 | -5%[11.4 µM] | i | i | -0.4%
O=C(Oc1cccc2cccnc12)c1cccc(-n2cnnn2)c1 | 1.2e-09 | -3% | i | i | 1.4%
CCN(CC(F)(F)C(F)F)S(=O)(=O)c1ccc(NC(=O)OC)cc1 | 4.5e-08 | -4% | i | i | -0.7%
Cc1noc(NS(=O)(=O)c2ccc(N3CC(O)=C(c4ccccc4)C3=N)cc2)c1C | 1e-09 | 3% | i | i | -0.9%

Structure | A647 autofl | TSHR agonist | Resorufin autofl | A488 autofl | AID923
CC(C)C(C(=O)C=[N+]=[N-])N1C(=O)c2ccccc2C1=O (configuration not stated) | 4.3e-09 | -7% | i | i | 4.6%
Cc1cc(NC(=O)c2ccc(Br)c(S(=O)(=O)N3CCCC3)c2)no1 | 3.9e-09 | ? | i | i | 0.4%
Cn1c(OCc2cccnc2)nc2c1c(=O)n(Cc1ccccc1)c(=O)n2C | 9.2e-08 | · | i | i | ·
CCOC(=O)c1ccc(NCc2nc3ccccc3[nH]2)cc1 | · | -1% | · | · | -0.6%
Cn1c(CNC(=O)Nc2ccccc2Cl)nnc1SCc1ccccc1 | 4.5e-09 | 6% | i | i | -1.8%
COc1ccc(C2=NOC(C(=O)Nc3cc(Br)ccc3O)C2)cc1OC (configuration not stated) | 2.7e-08 | -5% | i | i | 0.7%
O=C(Nc1ccon1)c1csc2ccccc12 | 8.4e-09 | -1% | i | i | -1.0%
Cn1c(SCC(=O)NCc2ccccc2)nc2ccccc21 | 1e-09 | · | i | i | ·
Cc1ccc(S(=O)(=O)N2CCC(N3CCCCCC3)CC2)cc1 | 1e-09 | · | i | i | ·
CN1CCN(C(=O)c2ccc(CS(=O)(=O)c3c(Cl)cccc3Cl)o2)CC1 | · | -17% | · | · | -2.1%

Just TSHR agonist, A488 autofl and Resorufin autofl (2 entries from above):
SMILES | TSHR agonist | A488 autofl | Resorufin autofl
O=C(Nc1ccon1)c1csc2ccccc12 | -1% | i | i
Cn1c(SCC(=O)NCc2ccccc2)nc2ccccc21 | · | i | i

Other compounds
Structure | A647 autofl | TSHR agonist | Resorufin autofl | A488 autofl | AID923
CCCCNC(=O)C1CCN(S(=O)(=O)c2cnc[nH]2)CC1 | 1.1e-08 | -1% | i | i | -0.2%
O=S(=O)(c1cccs1)N1CCN(C/C=C/c2ccccc2)CC1 | 4.4e-08 | 16% | i | i | -0.1%
CC1Cc2ccccc2N1C(=O)CSc1nnc(CSc2ncccn2)n1C (configuration not stated) | 1e-09 | -3% | i | i | 0.0%
CCOC(=O)c1csc(NC(=O)CSc2nnc(C3CC3)n2C)n1 | 5.1e-08 | -3% | i | i | -0.7%
CCOC(=O)c1cccc(NC(=O)Cn2c(CC(=O)NC)nc3ccccc32)c1 | 1.2e-09 | 1% | i | i | 1.0%
CCN(CC)CC(=O)Nc1ccc2c(c1)Nc1ccccc1CC2 | 1.8e-08 | -14% | i | i | 1.3%
CC(C)C(=O)C(C)(C)CCc1ccccn1 | 1e-09 | -1%[11.4 µM] | i | i | 0.7%[11.5 µM]
CCOC(=O)C1CCCN(C(=O)c2ccc3c(=O)n(CCOC)c(=S)[nH]c3c2)C1 (configuration not stated) | 1e-09 | ? | i | i | 0.0%
Cc1noc(C)c1-c1nccc(NC2CC2)n1 | 1e-09 | 2% | i | i | -1.3%
CC(=O)c1ccc(N(C)C)c2c(N(C)C)cccc12 | 1.1e-08 | ? | i | i | 1.5%

Structure | A647 autofl | TSHR agonist | Resorufin autofl | A488 autofl | AID923
CCOC(=O)N1CCC(NC(=O)c2cc(S(=O)(=O)N3CCOCC3)ccc2F)CC1 | 2.9e-09 | 1% | i | i | 0.1%
Cn1c(SCc2nc3ccccc3n2CCO)nc2ccccc21 | 1e-09 | -2% | i | i | 1.4%
Cc1[nH]c(=O)[nH]c(=O)c1S(=O)(=O)N1CCCC(C(=O)N2CCC(Cc3ccccc3)CC2)C1 (configuration not stated) | · | -8% | · | · | -2.6%
CC(C)n1c(C(=O)OCC(=O)NCc2ccc3c(c2)OCO3)cc2occc21 | 1e-09 | ? | i | i | 1.8%
N#Cc1c(-c2ccco2)nc(SCc2ccc(F)cc2)[nH]c1=O | 3.3e-08 | -1% | i | i | -1.7%
O=C(O)C1=CCNCC1 | 5.6e-09 | 2% | i | i | -0.2%&3.9%&-4.2%
CCOc1ccc2cc(C#N)c(SCC(=O)NC(C)CC)nc2c1 (configuration not stated) | 4.5e-08 | 2% | i | i | 3.6%
Cc1nc(SC2C=CS(=O)(=O)C2)n[nH]1 (configuration not stated) | 4e-09 | · | i | i | ·
Fc1ccccc1CSc1nnc(-c2cnccn2)n1Cc1ccco1 | 1.3e-09 | ? | i | i | -0.8%
CC(C)(C)c1cnnn1-c1ccc(NC(=O)c2ccc(Br)o2)cc1 | 1.2e-09 | 3% | i | i | -0.5%

Structure | A647 autofl | TSHR agonist | Resorufin autofl | A488 autofl | AID923
COc1ccc(NC(=O)CN2CCC3(O)CCCCC3C2c2ccccc2OC)cc1 (configuration not stated) | 1.2e-09 | 10% | i | i | 0.8%
CCCN1C(=O)c2ccccc2NC1c1ccc(OC)cc1O (configuration not stated) | 4.2e-08 | 15% | i | i | 4.6%
N#CC1=C2SCN(c3ccc(F)cc3)CN2C(=O)CC1c1cccc(F)c1 (configuration not stated) | · | 2% | · | · | -2.5%
COc1ccc(S(=O)(=O)NC2CC3CCC2C3)cc1Cl (configuration not stated) | 2.3e-08 | -1% | i | i | -1.1%
O=P(O)(CN1CCCCC1)C1CCCCC1O (configuration not stated) | · | 1% | · | · | -0.2%
O=c1c2ccccc2[nH]c(=S)n1CCCN1CCN(C2CCCCC2)CC1 | 3e-09 | 8% | i | i | -0.4%
CS(=O)(=O)N(CC(=O)NC1CC1)c1cccc(F)c1 | 3.9e-09 | 0% | i | i | -1.4%
CSCCC1NC2(C(=O)Nc3c(Cl)cccc32)[C@@H]2C(=O)N(C3CCCC3)C(=O)[C@H]12 (some centres not stated) | 2.3e-08 | -8% | i | i | -2.4%
O=S(=O)(c1ccc(OCC(O)CN2CCN(c3ccccc3)CC2)cc1)N1CCOCC1 (configuration not stated) | 2.6e-08 | 14% | i | i | -0.4%
CCCc1n[nH]c(=O)[nH]1 | 4.6e-09 | 24% | i | i | 0.1%

Structure | A647 autofl | TSHR agonist | Resorufin autofl | A488 autofl | AID923
CCOC(=O)c1ccc(NC(=O)Cn2nnc(-c3ccccc3)n2)cc1 | 2.9e-09 | · | i | i | 0.1%
N#Cc1cccc(-c2nccc(NCc3ccccc3)n2)c1 | 2.9e-08 | 0% | i | i | 0.5%
O=C(Cn1cnc2c(nnn2Cc2ccccc2)c1=O)N1CCN(c2ccccc2)CC1 | · | 2% | · | · | -0.2%
COc1ccc(C(C)(C)C)cc1NC(=O)COC(=O)c1cnc(C)cn1 | 1.3e-08 | 1% | i | i | -0.6%
CC(=O)O[C@]1(C(C)=O)CC[C@@H]2[C@@H]3C=C(C)C4=CC(=O)CC[C@@]4(C)[C@H]3CC[C@]21C | 1.9e-08 | 9%[25.6 µM] | i | i | -2.4%[25.7 µM]
O=C(C[C@@H]1C=Cc2ccccc2N1C(=O)c1ccccc1)c1ccccc1 | 2.2e-08 | ? | i | i | 2.5%[11.5 µM]
CCn1c(=O)n(CC)c2cc(S(=O)(=O)N3CCC(c4ccccc4)CC3)ccc21 | 2.5e-08 | ? | i | i | -2.0%
CCOC(=O)N1CCN(Cc2cn3ccccc3n2)CC1 | 1.6e-09 | 2% | i | i | 1.7%
CCOC(=O)CCc1c(C)nc2cc(-c3ccccc3OC)[nH]n2c1=O | · | -1% | · | · | -0.9%
OCCCc1nc2ccccc2n1CCOc1ccccc1 | · | 28%[11.4 µM] | · | · | -1.9%

Structure | A647 autofl | TSHR agonist | Resorufin autofl | A488 autofl | AID923
O=c1oc2cc(O)ccc2c2oc3cc(O)ccc3c12 | 3.4e-08 | · | i | i | ·
O=C(N/N=C1/C[C@@H](O)[C@@H](O)[C@@H]2[C@@H]3C(=O)N(Cc4ccc5c(c4)OCO5)C(=O)[C@H]3CC[C@H]12)OCc1ccccc1 | · | -4%[11.4 µM] | · | · | -0.5%[11.5 µM]
CCOc1ccc(Cn2nnc(C(=O)Nc3cc(C)cc(C)c3)c2N)cc1 | · | 22% | · | · | -0.8%
O=C(c1cnccn1)N1CCC2(CCCN(Cc3nccs3)C2)CC1 | 1e-09 | 1% | i | i | 1.0%
Cn1c(=O)n(Cc2ccc(F)cc2)c(=O)c2c1nc1n2CCCN1C1CCCCC1 | 7.2e-09 | -22% | i | i | -0.9%
CC(C)C(C)(C)C(C)(C)C(C)(C)S | · | 7% | · | · | -1.6%
O=C1C2CCCN2C(c2ccc(F)cc2)N1c1ccc(Cl)cc1 (configuration not stated) | · | 19% | · | · | -0.2%
CCOC(=O)C1CCCN(c2nc3ccccc3nc2C(C#N)C(=O)OCC)C1 (configuration not stated) | 3e-09 | · | i | i | 19%
CC1C(=O)C(C)C(c2ccc3c(c2)OCO3)NC1c1ccc2c(c1)OCO2 (configuration not stated) | 1.3e-08 | ? | i | i | -0.4%

Whole records from above.
Record of `Cn1c(=O)n(Cc2ccc(F)cc2)c(=O)c2c1nc1n2CCCN1C1CCCCC1` = A647 autofl = 7.2e-09; TSHR agonist = -22%; Resorufin autofl = i; A488 autofl = i; AID923 = -0.9%
Record of `O=C(Nc1ccon1)c1csc2ccccc12` = A647 autofl = 8.4e-09; TSHR agonist = -1%; Resorufin autofl = i; A488 autofl = i; AID923 = -1.0%

A portion of the library; count on the stated rates, not on these rows.
